# FGF22 binding – binders of recombinant human FGF22 by thermal shift | Q9HCT0 | SYPRO orange fluorescence; percent of sucrose octasulfate shift, DMSO zero | calls only at 9.99 µM | 340,000 compounds, 1.5% hits | AID 651658;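 active means melting point raised past a set limit in the mean and every replicate; three in four hits are not shown here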
# Target sequence (Q9HCT0 whole entry, looked up): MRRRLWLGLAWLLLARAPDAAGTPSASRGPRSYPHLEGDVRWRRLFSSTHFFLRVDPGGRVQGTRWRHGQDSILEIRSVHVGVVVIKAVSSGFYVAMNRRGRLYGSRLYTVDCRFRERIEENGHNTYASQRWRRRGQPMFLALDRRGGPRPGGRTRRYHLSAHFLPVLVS
# MLL AF4-AF9 inh – MLL-AF4/AF9 protein interaction inhibition; P42568; AlphaScreen, biotin-AF4 peptide binding to FLAG-AF9; inhibition, % at 10 µM; 350,000 compounds, 0.47% hits; AID 651704;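 active means every replicate reaching a set inhibition limit, whatever the replicate mean, cut at about 25% in these data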;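 further: 0% = plate neutral control median and 100% = total signal loss; the record names both 10 and 1 µM as test concentration; the first replicate is given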
# Target sequence (P42568 whole entry, looked up): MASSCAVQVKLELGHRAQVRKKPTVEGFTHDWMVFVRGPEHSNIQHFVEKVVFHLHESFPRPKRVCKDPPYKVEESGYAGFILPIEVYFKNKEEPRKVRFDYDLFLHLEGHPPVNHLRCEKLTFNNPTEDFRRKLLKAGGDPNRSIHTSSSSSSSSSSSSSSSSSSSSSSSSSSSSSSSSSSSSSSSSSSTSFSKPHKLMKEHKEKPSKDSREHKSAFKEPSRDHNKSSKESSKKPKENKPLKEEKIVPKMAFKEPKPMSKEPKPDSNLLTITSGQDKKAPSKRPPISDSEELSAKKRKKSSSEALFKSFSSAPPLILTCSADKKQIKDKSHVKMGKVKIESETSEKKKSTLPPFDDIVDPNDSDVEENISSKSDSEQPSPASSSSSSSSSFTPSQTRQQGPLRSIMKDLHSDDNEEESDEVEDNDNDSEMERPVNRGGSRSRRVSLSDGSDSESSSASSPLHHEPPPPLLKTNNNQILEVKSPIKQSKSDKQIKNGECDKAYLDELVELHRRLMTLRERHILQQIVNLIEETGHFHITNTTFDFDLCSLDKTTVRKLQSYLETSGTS
# Ecoli rRNA inh – selective bacterial rRNA inhibition in E. coli. E. coli WT GFP vs humanized-ribosome RFP mutants, fluorescence, 24 h; active compounds read low; DMSO median 0, no signal -100. GFP signal change (wild-type ribosome), % (no concentration beside the values). 350,000 compounds, 1.6% hits. AID 720706;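 active means significant combined selectivity score with lowered wild-type GFP, culture density cut under 30%, mutant RFP and density less affected; inactive means any of these conditions unmet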; further: one replicate is shown; some compounds called inactive have numbers as strong as hits
# Ecoli rRNA inh OD600 – recorded beside Ecoli rRNA inh, whose call it bears; OD600 change, %; measured here: OD600 growth;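 optical density of the mix in the first replicate; 0 = DMSO median and -100 = no signal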
# Ecoli rRNA inh RFP – further read-out of Ecoli rRNA inh, marked with its call; RFP signal change, %; measured here: RFP humanized mutant strains;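 first replicate; 0 = DMSO median and -100 = no signal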
# * hit, by the source's call; i = inactive; + = active, no number; & = joins results of further samples. Not all compounds are listed. The share of hits here may be higher or lower than overall.
entry	Structure	FGF22 binding	MLL AF4-AF9 inh	Ecoli rRNA inh	Ecoli rRNA inh OD600	Ecoli rRNA inh RFP
1	CCCC(=O)Nc1ccc2c(c1)OC[C@H](C)N(C(=O)CC)C[C@@H](C)[C@H](OC)CN(C)C2=O	i	-2.5	1.0	2.9	0.0
2	O=c1cc(CN(Cc2ccccc2)Cc2ccccc2)c2c(ccc3ccccc32)o1	i	0.7	24.1	15.3	31.4
3	C[C@H]1CN([C@@H](C)CO)C(=O)c2cc(NC(=O)Nc3cccc4ccccc34)ccc2O[C@H]1CN(C)CC1CCCCC1	i	6.9	-3.1	-18.9	14.8
4	CC(=O)N(C)C[C@H]1Oc2cc(/C=C/c3ccccc3)ccc2S(=O)(=O)N([C@H](C)CO)C[C@H]1C	i	6.2	-5.5	-5.7	-1.1
5	Cc1noc(C)c1NC(=O)Nc1ccc2c(c1)C(=O)N([C@@H](C)CO)C[C@H](C)[C@H](CN(C)C(=O)Nc1cccc3ccccc13)O2	i	-2.4	3.1	0.9	0.4
6	COc1cc(C=NNc2ccccc2)ccc1OC(=O)c1ccccc1	i	2.1	-0.7	12.5	5.7
7	CC(=O)c1ccccc1C(=O)N1CCC(CCC(=O)NCc2ccc(F)cc2)CC1	i	-0.4	9.8	6.5	-0.6
8	COCCNC(=O)C1CCCN(C(=O)c2cncc(Br)c2)CC1 (stereo not given)	i	-4.8	14.7	8.2	1.9
9	Cc1noc(C)c1S(=O)(=O)N(C)C[C@H]1Oc2ccc(NC(=O)Cn3cnnn3)cc2CC(=O)N([C@H](C)CO)C[C@H]1C	i	-1.8	2.1	7.8	-2.4
10	Cc1ccc(NC(=O)CCCN2C(=O)C(c3ccccc3)Oc3cccnc32)c(C)c1 (stereo not given)	i	-2.2	4.7	12.6	-1.9
11	C[C@H](CO)N1C[C@H](C)[C@H](CN(C)C(=O)NC2CCCCC2)Oc2ncc(-c3cccc(C(F)(F)F)c3)cc2C1=O	i	1.5	-20.9	-45.5	36.7
12	CN(C)c1ccc2c(c1)[C@@H]1C[C@@H](CC(=O)NCc3ccc4c(c3)OCO4)O[C@H](CO)[C@@H]1O2	i	1.0	-1.2	13.3	2.3
13	CO[C@@H]1CN(C)C(=O)c2ccc(NC(=O)c3cc(C)on3)cc2OC[C@H](C)N(C(=O)C2CC2)C[C@@H]1C	i	0.0	-2.8	1.7	-3.0
14	C[C@@H]1CN([C@H](C)CO)C(=O)c2cccc(NC(=O)Nc3ccc(C(F)(F)F)cc3)c2O[C@@H]1CN(C)CC1CCCCC1	i	6.8	-7.0	-31.8	9.2
15	C[C@@H]1CN([C@@H](C)CO)C(=O)c2c(c3ccccc3n2C)-c2ccccc2CO[C@H]1CN(C)C(=O)Nc1cccc(Cl)c1Cl	i	4.9	0.6	10.5	-4.6
16	O=C(C[C@H]1CC[C@@H]2[C@H](COC[C@H](O)CN2S(=O)(=O)c2cccc(F)c2)O1)NC1CCC1	i	7.0	1.9	5.5	-2.5
17	Cn1c(-c2ccccc2)c(Sc2ccccc2)c2cc(-c3ccc4[nH]ccc4c3)ccc21	i	3.5	27.6	20.5	1.1
18	COc1ccc(C#Cc2cnc3c(c2)C(=O)N([C@H](C)CO)C[C@@H](C)[C@@H](CN(C)CC2CCOCC2)O3)cc1	i	0.6	5.3	8.9	-1.5
19	O=C(C[C@H]1CC[C@@H]2[C@H](COC[C@H](O)CN2C(=O)c2ccccc2)O1)N1CCOCC1	i	-2.6	0.9	5.9	1.1
20	COc1ccc(OC(=O)N(C)C[C@H]2OCc3ccccc3-c3ccccc3C(=O)N([C@@H](C)CO)C[C@H]2C)cc1	i	-2.3	-1.6	-3.5	-4.1
21	CO[C@H]1CN(C)C(=O)c2cc(NC(C)=O)ccc2OC[C@H](C)N(CCC(F)(F)F)C[C@@H]1C	i	-18.5	3.6	2.0	-1.2
22	C[C@H]1CN([C@@H](C)CO)S(=O)(=O)c2ccc(C3=CCCCC3)cc2O[C@H]1CN(C)Cc1cccc(C(=O)O)c1	i	-0.5	-0.1	6.1	-0.8
23	COCC#Cc1ccc2c(c1)O[C@H](CN(C)C(=O)COC)[C@H](C)CN([C@@H](C)CO)S2(=O)=O	i	-2.7	2.2	10.4	-3.7
24	C[C@H](CO)N1C[C@H](C)[C@H](CN(C)C(=O)CCC(F)(F)F)OCCCC[C@H](C)Oc2ccc(N(C)C)cc2C1=O	i	2.3	-4.3	3.6	-2.9
25	COc1ccc(-c2ccc([C@H]3[C@@H](CO)N4CCCCN(C(=O)c5ccc6c(c5)OCO6)C[C@H]34)cc2)cc1	+	1.9	-5.3	-20.9	3.7
26	COc1ccc2c3c(n(C)c2c1)[C@H](CO)N(Cc1cc(F)ccc1F)CC31CCN(C(=O)C2CC2)CC1	i	-2.2	4.7	-0.7	1.6
27	CN(C)Cc1cn(CC[C@H]2CC[C@@H](NC(=O)Nc3ccccc3F)[C@H](CO)O2)nn1	i	-1.3	4.0	-2.1	-1.9
28	O=C(C[C@@H]1CC[C@@H]2[C@H](COC[C@@H](O)CN2C(=O)c2cccnc2)O1)NCc1ccc(Cl)cc1	i	-1.5	0.5	2.6	16.0
29	O=C(NCC(F)(F)F)[C@H]1[C@H](CO)[C@H]2Cn3c(cccc3=O)[C@H]2N1Cc1cccc(F)c1	i	-6.3	0.4	-1.1	-1.6
30	COC(=O)C1(C)CCCC2(C)c3cc(OC)ccc3C(=O)C(Br)C12 (stereo not given)	i	6.7	-14.3	-25.0	-5.1

# From entry 9 up to 10, as listed above:
entry	Structure	FGF22 binding	MLL AF4-AF9 inh	Ecoli rRNA inh	Ecoli rRNA inh OD600	Ecoli rRNA inh RFP
9	Cc1noc(C)c1S(=O)(=O)N(C)C[C@H]1Oc2ccc(NC(=O)Cn3cnnn3)cc2CC(=O)N([C@H](C)CO)C[C@H]1C	i	-1.8	2.1	7.8	-2.4
10	Cc1ccc(NC(=O)CCCN2C(=O)C(c3ccccc3)Oc3cccnc32)c(C)c1 (stereo not given)	i	-2.2	4.7	12.6	-1.9

# Next section
entry	Structure	FGF22 binding	MLL AF4-AF9 inh	Ecoli rRNA inh	Ecoli rRNA inh OD600	Ecoli rRNA inh RFP
31	C[C@@H]1CN([C@H](C)CO)C(=O)CCCn2nncc2CO[C@H]1CN(C)S(=O)(=O)c1ccc(-n2cccn2)cc1	i	0.2&-1.9	28.9&-5.1	6.1&-3.2	5.2&-0.4
32	COc1cccc(CN(C)C(=O)C2CCCN(C(=O)c3ccc(Cl)cc3)C2)c1 (stereo not given)	i	-0.1	-6.6	-18.0	3.7
33	Cc1ccc(S(=O)(=O)N[C@H]2CC[C@@H](CCNC(=O)Nc3ccc(Cl)cc3)O[C@@H]2CO)cc1	i	10.0	-19.8	-34.0	14.3
34	CCC(=O)N1C[C@@H](C)[C@@H](OC)CN(C)C(=O)c2ccc(NC(=O)CC(F)(F)F)cc2OC[C@@H]1C	i	-4.9	4.3	7.3	0.7
35	Cc1noc(C)c1NC(=O)N(C)C[C@@H]1Oc2c(NS(=O)(=O)c3ccc(Cl)cc3)cccc2C(=O)N([C@H](C)CO)C[C@H]1C	i	-1.4	-0.4	2.1	-2.3
36	CCCCNC(=O)c1nc(C2CCN(S(=O)(=O)c3ccc(C(F)(F)F)cc3)CC2)oc1-c1ccccc1	i	-3.8	-1.4	9.4	-5.6
37	COc1ccc(NC(=O)N(C)C[C@@H]2OCCCC[C@@H](C)Oc3ccc(NS(=O)(=O)c4ccccc4)cc3C(=O)N([C@H](C)CO)C[C@@H]2C)cc1	i	-0.7	0.9	3.4	-3.0
38	CC(=O)c1ccc(S(=O)(=O)N(C)CCCC(=O)NCc2ccc3c(c2)OCO3)cc1	i	0.7	7.2	5.8	-1.0
39	CC(=O)Nc1ccc2c(c1)C(=O)N(C)[C@@H]1CC[C@@H](CC(=O)NCc3ccc(F)cc3)O[C@H]1CO2	i	-0.6	2.1	2.9	-3.3
40	CN(C)C(=O)CCc1ccc2c3c([nH]c2c1)[C@]1(C)[C@@H](C(=O)N2CCCCC2)C[C@H](CC(=O)NC(C)(C)C)C(=O)N1CC3	i	0.4	7.3	4.8	4.2
41	Cn1cnc(S(=O)(=O)N2CC[C@@H]3[C@@H](CO)Nc4ccc(-c5ccc(F)cc5)cc4[C@@H]32)c1	i	14.4	-10.2	-2.3	-2.4
42	Cn1cnc2ncnc(Oc3ccc(Br)cc3)c21	i	4.2	8.7	9.5	0.3
43	CO[C@H]1CN(C)C(=O)c2cc(NC(=O)C3CC3)ccc2OC[C@H](C)N(CCC(F)(F)F)C[C@@H]1C	i	2.0	-3.5	-2.5	2.4
44	CC(C)NC(=O)N(C)C[C@@H]1OCCCC[C@H](C)Oc2ccc(NC(=O)Nc3cccc4ccccc34)cc2C(=O)N([C@@H](C)CO)C[C@H]1C	i	-8.2	1.5	1.9	0.8
45	COc1ccc(NC(=O)Nc2ccc3c(c2)CC(=O)N([C@H](C)CO)C[C@H](C)[C@@H](CN(C)S(=O)(=O)c2cn(C)cn2)O3)cc1	i	-2.3	2.0	-0.4	2.5
46	CN(C)CCCNc1nc2cc(-c3cccc(Cl)c3)sc2c(=O)n1C	i	7.3	-9.3	-21.0	1.5
47	COCCNc1nc(NCc2ccc(NC(C)=O)cc2)c2sc(-c3ccccc3)cc2n1	i	3.7	-18.8	-11.4	-1.5
48	CO[C@H]1CN(C)C(=O)c2cc(NC(=O)C3CC3)ccc2OC[C@@H](C)N(C(=O)C2CCOCC2)C[C@@H]1C	i	-8.2	2.7	3.5	-2.2
49	C[C@@H]1CN([C@H](C)CO)C(=O)c2cc(C#CC3CCCC3)cnc2O[C@H]1CN(C)C(=O)C1CCC1	i	-2.6	-3.1	-6.3	0.0
50	C[C@H](NC(=O)[C@@H]1[C@@H](CO)[C@@H]2Cn3c(ccc(-c4ccncc4)c3=O)[C@@H]2N1C)c1ccccc1	i	-2.2	1.0	-7.4	-0.6
51	CNC[C@H]1Oc2cc(-c3ccccc3F)ccc2S(=O)(=O)N([C@@H](C)CO)C[C@@H]1C	i	-5.8	-2.8	2.7	4.7
52	Cc1ccc(OCCSc2nc3ccccc3n2CCC(=O)O)c(C(C)C)c1	i	-15.7	0.0	8.7	5.2
53	CCc1ccc2cc(F)cc(F)c2n1	i	-1.0	9.8	12.6	-1.5
54	O=C(Nc1ccc2c(c1)[C@@H]1C[C@@H](CC(=O)N3CCc4ccccc4C3)O[C@H](CO)[C@@H]1O2)C1CCOCC1	i	-3.7	2.5	4.6	-2.2
55	COCC(=O)Nc1ccc2c(c1)C(=O)N(C)C[C@@H](OC)[C@@H](C)CN(C(=O)C1CCCC1)[C@H](C)CO2	i	-1.1	1.6	5.0	1.6
56	O=C(C[C@@H]1C[C@@H]2c3cc(NC(=O)C4CCC4)ccc3O[C@@H]2[C@H](CO)O1)NCc1ccc(Cl)cc1	i	-1.4	-4.5	-5.9	-5.0
57	O=C(NCC[C@@H]1CC[C@H](NC(=O)C2CCOCC2)[C@H](CO)O1)c1cc(Cl)cc(Cl)c1	i	-0.7	2.8	2.9	-2.0
58	COc1ccc(NC(=O)N(C)C[C@H]2OCCCC[C@@H](C)Oc3ccc(NC(=O)CCC(F)(F)F)cc3C(=O)N([C@@H](C)CO)C[C@H]2C)cc1	i	-1.0	2.0	-6.3	-1.5
59	CC1(C(=O)Nc2ccc3c(c2)OCO3)CCN1C(=O)Cc1cccs1 (stereo not given)	i	-1.9	2.8	-3.6	-2.1
60	CCOc1cccc2cc(C(=O)OCC(=O)Nc3c(C)cccc3CC)c(=O)oc12	i	-0.2	18.0	15.1	4.3
61	COCC(=O)N(C[C@H]1N[C@@H](CO)[C@@H]1c1ccc(-c2cccnc2)cc1)C(C)C	i	-4.1	2.4	-0.7	-2.5
62	OC[C@@H]1CN(Cc2ccc(-c3ccccc3)cc2)C[C@H](n2cnc3c(N4CCOCC4)ncnc32)O1	i	6.6	-22.3	-64.8	15.4
63	CC1(C(=O)NS(=O)(=O)c2ccccc2)CCN1C(=O)c1ccccc1 (stereo not given)	i	1.7	5.0	17.7	-7.3
64	CCOc1ccc(CCN2C(=S)N([C@@H](Cc3ccc(O)cc3)CN3CCC[C@@H]3CN3C(=S)NC[C@@H]3Cc3ccc(O)cc3)C[C@@H]2Cc2ccc(O)cc2)cc1	i	2.1	8.5	4.5	6.6
65	CC(C)CC#Cc1ccc([C@H]2[C@H]3CN(C(=O)NC4CCCC4)CCCCN3[C@H]2CO)cc1	i	-6.6	-48.8	-53.8	0.2
66	COc1ccccc1NC(=O)N1CC(=O)N2[C@H](C1)[C@H](c1ccc(C#CC(C)C)cc1)[C@@H]2CO	i	0.1	0.7	3.6	2.7
67	N#C[C@@H]1[C@@H](c2ccccc2C2=CCCCC2)[C@@H](CO)N1S(=O)(=O)c1cccc(F)c1	i	-8.4	-6.0	-24.4	-1.1

# Entries above that contain an NH in an aromatic ring (2):
entry	Structure	FGF22 binding	MLL AF4-AF9 inh	Ecoli rRNA inh	Ecoli rRNA inh OD600	Ecoli rRNA inh RFP
17	Cn1c(-c2ccccc2)c(Sc2ccccc2)c2cc(-c3ccc4[nH]ccc4c3)ccc21	i	3.5	27.6	20.5	1.1
40	CN(C)C(=O)CCc1ccc2c3c([nH]c2c1)[C@]1(C)[C@@H](C(=O)N2CCCCC2)C[C@H](CC(=O)NC(C)(C)C)C(=O)N1CC3	i	0.4	7.3	4.8	4.2

# Screening results: PubChem BioAssay, Broad Institute
